High-throughput results: PubChem BioAssay, several laboratories
T cruzi repl = inhibitors of intracellular T. cruzi growth, primary screen, luminescence, NIH3T3 host cells | T. cruzi beta-gal in NIH3T3, 90 h | inhibition, % (concentration not given with the values) | hit rate 1.4% among 300,000;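 active means mean inhibition across valid replicates above about 55%, limit read from the data; inconclusive means mean below that limit but half or more replicates reach it; inactive means mean below it, under half of replicates reach it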;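 further: signal also drops with host cell toxicity which is not excluded here; 0% = plate median of DMSO wells and 100% = zero luminescence signal; higher percent means less beta-gal luminescence so fewer parasites; stock transfer was 50 nL into about 50 µL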
RanGTP-Impb inh = inhibitors of RanGTP-importin-beta interaction, primary screen, biochemical, FRET, CFP-Ran, YFP-importin-beta, homogeneous; inhibition, % (test concentration not listed); Ran GTPase (GTP-bound) - importin-beta complex; hit rate 1.1% among 300,000; cell-free CFP-Ran/YFP-importin-beta FRET ratio;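 active means most replicates above 15%; inconclusive means exactly half above 15%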;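 further: 0% = DMSO wells and 100% = Ran loaded with GDP instead of GTP; wells of about 40 µL received 100 nL stock; the first replicate is given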
Vif TR-FRET = inhibitors of Vif binding to APOBEC3G peptide, primary screen, biochemical, TR-FRET, GST-Vif 1-94, biotin-A3G peptide, dose response retest (AID 1117319) | Virion infectivity factor (Human immunodeficiency virus type 1 group M subtype B (isolate … | TR-FRET GST-Vif / biotin-A3G peptide binding; higher % means a stronger effect; test concentration not given here; strong numbers were not always called active | inhibition, %, or IC50 in µM where a hit was titrated | hit rate 0.57% among 260,000;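 active means above the screen mean plus three standard deviations and confirmed in dose response; inconclusive means results disagree or hit not tested in dose response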;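 further: Vif residues 1-94 fused to GST binding biotinylated APOBEC3G peptide 110-148; 0% = full assay without inhibitor and 100% = GST in place of GST-Vif; retest series ran down from 100 µM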
Beta apoptosis = inhibitors of cytokine-induced beta cell apoptosis, primary screen, luminescence | INS-1E cytokine-induced death, ATP luminescence, 48 h; percent of positive-control rescue, neutral wells zero | protection from apoptosis, % (test concentration not listed) | hit rate 0.8% among 300,000 | AID 435005, 2010;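 active means all replicates at 75% or more, or half of them and the mean; inconclusive means half reach 75% but not the mean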;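 further: 0% = cytokine-treated negative control wells and 100% = positive control rescue; higher means more ATP so stronger rescue from cytokine killing; wells of about 40 µL received 100 nL stock; the first replicate is given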
Bfl-1 A1 inh = caspase 3/7 activation in MEF A1-2A-BIM cells, primary screen, A1 inhibitor project, cell-based, luminescence, HTS; Caspase-Glo 3/7 luminescence, 3 h; percent of clofoctol response, vehicle zero; caspase activation, % (no concentration beside the values); hit rate 0.066% among 330,000; AID 2462, 2010;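 active means over half of replicate activation scores above 10%, or exactly half above 10 with the replicate mean above 10; inconclusive means replicate mean below 10 yet half the replicates above 10; inactive means over half of replicates below 10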;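 further: wells of about 30 µL received 50 nL stock; many hits fall short of the cut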
MLL AF4-AF9 inh = inhibitors of AF4 peptide binding to AF9, primary screen, biochemical, AlphaScreen, biotin-AF4 peptide, FLAG-AF9, single point; Protein AF-9 (Homo sapiens), P42568; inhibition, % at 10 µM; hit rate 0.47% among 350,000; AID 651704, 2012;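 active means every replicate reaching a set inhibition limit, whatever the replicate mean, cut at about 25% in these data; inconclusive means mean inhibition reaches that limit but some replicates miss it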;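 further: 0% = plate neutral control median and 100% = total signal loss; the record names both 10 and 1 µM as test concentration; the first replicate is given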
Target sequence (P42568 whole entry, looked up): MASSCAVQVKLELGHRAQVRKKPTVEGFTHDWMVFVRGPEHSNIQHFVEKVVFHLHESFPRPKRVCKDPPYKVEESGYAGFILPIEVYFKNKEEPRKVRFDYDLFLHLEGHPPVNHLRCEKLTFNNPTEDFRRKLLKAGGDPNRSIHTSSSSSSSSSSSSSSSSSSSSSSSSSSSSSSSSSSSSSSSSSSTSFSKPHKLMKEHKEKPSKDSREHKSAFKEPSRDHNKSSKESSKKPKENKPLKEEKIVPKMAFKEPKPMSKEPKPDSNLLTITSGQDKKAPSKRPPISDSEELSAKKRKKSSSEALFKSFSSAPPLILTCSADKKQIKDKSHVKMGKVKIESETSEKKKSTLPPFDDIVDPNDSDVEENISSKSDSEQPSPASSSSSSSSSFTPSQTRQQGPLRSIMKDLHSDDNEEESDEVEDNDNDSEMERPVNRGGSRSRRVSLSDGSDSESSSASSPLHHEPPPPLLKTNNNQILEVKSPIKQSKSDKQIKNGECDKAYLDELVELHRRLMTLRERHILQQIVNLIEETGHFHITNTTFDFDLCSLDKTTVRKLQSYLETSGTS
Calb FLC = C. albicans growth inhibition with fluconazole, primary screen, CaCi-2 strain, Alamar Blue fluorescence; C. albicans CaCi-2 (fluconazole-resistant clinical isolate) + fluconazole, 48 h; growth inhibition, % (test concentration not listed); hit rate 0.57% among 300,000; AID 1979, 2009;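 active means most replicates above 75%; inconclusive means exactly half above 75%; inactive means most below 75%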;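 further: all wells also contain fluconazole at 8 µg/ml as a sub-toxic cotreatment; 0% = median of DMSO wells and 100% = median of geldanamycin control wells; wells of about 8 µL received 7.5 nL stock; the first replicate is given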
rRNA inh HTS = reduced GFP signal of wild-type E. coli, primary screen, bacterial rRNA inhibitor project, GFP/RFP fluorescence, OD600, single point | E. coli WT GFP vs humanized-ribosome RFP mutants, 24 h; active compounds read low; DMSO median 0, no signal -100 | GFP signal change (wild-type ribosome), % (test concentration not listed) | hit rate 1.6% among 350,000 | AID 720706, 2013;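 active means significant combined selectivity score with lowered wild-type GFP, culture density cut under 30%, mutant RFP and density less affected; inactive means any of these conditions unmet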; further: one replicate is shown; some compounds called inactive have numbers as strong as hits
rRNA inh HTS OD600 = also measured in rRNA inh HTS; calls as there; OD600 change, %; measured here: OD600 growth;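 optical density of the mix in the first replicate; 0 = DMSO median and -100 = no signal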
rRNA inh HTS RFP = recorded beside rRNA inh HTS, whose call it bears; RFP signal change, %; measured here: RFP humanized mutant strains;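 first replicate; 0 = DMSO median and -100 = no signal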
* marks the source's active call; other numbers are inactive results; ? = inconclusive; · = not tested or not shown; & = joins results of further samples. Only part of the results is shown; rates above refer to the full screens.

SMILES	T cruzi repl	RanGTP-Impb inh	Vif TR-FRET	Beta apoptosis	Bfl-1 A1 inh	MLL AF4-AF9 inh	Calb FLC	rRNA inh HTS	rRNA inh HTS OD600	rRNA inh HTS RFP
CC(C)C[C@H](NC(=O)[C@H]1N2C(=O)c3ccccc3C2SC1(C)C)C(=O)N[C@@H](Cc1ccccc1)C(=O)O (stereo not given in full)	-17	4.6	·	-9	-0.9	-2.0	0	·	·	·
Cn1cc(C(CO)Cc2ccccc2)c2ccccc21 (stereo not given)	·	·	·	-10	2.0	-2.0	·	-8	-9	-2.4
CCc1ccc(OCCOC(=O)Nc2ccccc2)cc1	1	-0.3	·	-8	0.0	-3.0	-17	11	2	-2.8
CCCCCCCC(=O)N/N=C(\C)c1cccnc1	9	-0.6	-6%	·	-0.8	·	17	·	·	·
O=C(CSc1nnc(-c2ccncc2)o1)NC1C2CC3CC(C2)CC1C3 (stereo not given)	46	2.1	0%	-2	0.2	·	18	·	·	·
CCOCCn1c(CN2CCCCC2C)nc2c1c(=O)n(C)c(=O)n2C (stereo not given)	-3	3.4	·	8	0.2	-1.2	-2	0	-2	-2.5
CC1CCCCC1NC(=O)COC(=O)/C=C/c1ccc2c(c1)OCO2 (stereo not given)	-2	5.7	-6%	0	0.0	·	-8	·	·	·
CCOc1ccc2nc(Cl)c(/C=C/C(=O)c3ccco3)cc2c1	-1	-7.0	8%	1	1.3	·	53	·	·	·
CCOc1ccc(N=C2NN=C(c3cc(C)n(CC4CCCO4)c3C)CS2)cc1 (stereo not given)	14	-3.4	·	-6	-0.8	1.7	-6	3	8	0.5
O=C(Nc1nnc(S(=O)(=O)N2CCOCC2)s1)c1ccccc1F	-2	-0.4	·	-1	0.0	0.1	-12	1	-3	-2.1
O=S(=O)(Nc1cccc2c1CCCC2)c1ccc(Cl)cc1	8	0.1	15%	2	-0.3	·	-3	·	·	·
O=C(CCNC(=O)C1CCN(S(=O)(=O)c2ccc(F)cc2)CC1)NCc1cccnc1	3	?	·	-3	0.4	-2.3	?	6	1	-1.7
Cc1occc1C(=O)N/N=C/c1ccccn1	-9	6.0	22%	1	-3.8	-14	31	-4	1	-1.7
COc1ccc(S(=O)(=O)N2CCCCCC2)cc1C(=O)N(C)Cc1cccs1	7	-1.0	3%	-5	-0.3	-16	5	-11	-9	2.4
COC(=O)c1cc(NC(=O)c2ccccc2F)cc(C(=O)OC)c1	12	-0.2	·	4	-0.5	-2.0	-30	-1	3	-0.7
CCOC(=O)c1ccc(NC(=O)Nc2ccc3c4c(cccc24)C(=O)N3CC)cc1	28	-19	-3%&-4%	24	1.2	·	-3	9	0	-2.8
O=C1OCc2ccc(NC(=O)c3c(F)cccc3Cl)cc21	-11	-2.5	·	0	-0.6	-0.4	-4	-5	2	-1.3
Cc1cccc(C)c1NC(=O)CSc1nc(C2CC2)nc2ccccc12	4	-0.5	·	-1	0.5	-8.2	-3	11	19	-1.2
CCCN(CCC)C(=O)c1ccccc1C(=O)N(CCC)CCC	8	3.3	-7%	-5	0.0	·	-1	·	·	·
COC(=O)C1=C(C)N(C)C(C)=C(C(=O)OC)C1c1ccc(F)c(Br)c1	14	3.2	69%	2	0.2	·	1	·	·	·
COc1cc(C(=O)Nc2ccc(-n3cnnn3)c(C)c2)cc(OC)c1OC	-15	2.8	-4%	1	-0.3	·	18	·	·	·
O=C(CCSCCc1ccccn1)Nc1ccccn1	-6	8.5	6%	-14	-0.1	·	-3	·	·	·
CCOC(=O)N1CCN(C(=O)CN(c2cccc(OC)c2)S(C)(=O)=O)CC1	7	-4.1	?	-1	-0.2	·	19	·	·	·
S=C(NCc1cccnc1)Nc1cc(Cl)cc(Cl)c1	28	0.6	-12%	-12	-0.2	·	-20	-41	-51	-11
Cc1ccc2nc3c(cc(C(=O)NCCN4CCOCC4)c(=N)n3CCCN3CCOCC3)c(=O)n2c1	-17	143*	·	6	0.2	·	7	·	·	·
Next compounds follow.
SMILES	T cruzi repl	RanGTP-Impb inh	Vif TR-FRET	Beta apoptosis	Bfl-1 A1 inh	MLL AF4-AF9 inh	Calb FLC	rRNA inh HTS	rRNA inh HTS OD600	rRNA inh HTS RFP
COc1ccc(NC2=C(Cl)C(=O)N(CCc3ccccc3)C2=O)cc1	28	-2.3	·	-1	0.4	0.3	-1	-11	-23	1.8
CCCC(=O)Nc1ccc2oc(-c3ccc(OC)c(Br)c3)nc2c1	25	-3.5	-2%	12	-3.3	·	11	·	·	·
CCCCNC(=O)c1onc(CS(=O)(=O)c2ccccn2)c1C(=O)NCCCC	·	·	·	-2	0.2	-12	·	6	7	-1.5
N#CCOC(=O)C1CCN(S(=O)(=O)c2ccc3c(c2)OCCO3)CC1	14	3.0	5%	-5	0.1	0.3	7	7	7	0.3
CN(C)S(=O)(=O)c1cccc(C(=O)OCC(=O)N2c3ccccc3NC(=O)C2(C)C)c1	-19	-5.7	2%	1	0.3	·	2	·	·	·
CCSc1ncc(/C=N/Nc2ccc(F)cc2)n1C	39	0.8	8%	14	0.0	·	-31	·	·	·
COc1ccc(Cl)cc1NC(=O)c1[nH]c(C)c(C(C)=O)c1C	-5	1.0	·	1	0.3	-2.9	4	6	8	1.2
COc1ccc2[nH]c(=O)c(-c3nnn(-c4ccc(Cl)c(Cl)c4)n3)cc2c1	-28	-2.4	·	-3	0.3	·	-29	·	·	·
CC(C)(C)OC(=O)CNC(=O)c1nc[nH]c1C(=O)N1CCc2ccccc2C1	-6	5.0	·	2	0.4	-2.4	-9	-2	3	-2.4
c1ccc2c(c1)OCC(CNc1ncnc3sccc13)O2 (stereo not given)	-72	-0.5	·	107*	-0.4	·	80*	·	·	·
O=C(NNC(=O)c1ccccc1-n1cccc1)c1ccccc1	-10	6.6	20%	7	0.9	·	24	·	·	·
O=C(Nc1ccc(F)cc1)c1oc2ccccc2c1NC(=O)C1CCCC1	25	-3.9	-9%	17	0.4	-1.1	29	6	-2	-1.7
N#Cc1c(NC(=O)c2ccc([N+](=O)[O-])o2)sc2c1CCC2	32	-1.1	·	13	-5.2	11	64	7	3	3.8
Cc1ccc(N2CCN(CC(O)COc3ccc([N+](=O)[O-])cc3)CC2)cc1 (stereo not given)	7	-5.3	32%	4	0.5	2.6	-16	-8	-5	0.9
CCc1nnc(NC(=O)CSc2nnc(-c3ccccc3OC)n2-c2ccccc2)s1	15	-3.7	13%	-11	1.9	·	17	·	·	·
Cc1cccc(OCC(=O)NN2C(=O)C3C4C=CC(O4)C3C2=O)c1 (stereo not given)	-8	?	·	-2	-0.8	-2.1	-5	9	5	0.7
CCN(CC)S(=O)(=O)c1cccc(C(=O)NCc2ccccc2)c1	-23	2.3	2%	-5	-0.1	-0.8	-25	-1	-5	-8.2
NCCCNc1nc(N)c([N+](=O)[O-])c(NC2CCCCC2)n1	24	7.1	·	-20	-1.0	6.2	15	10	1	3.2
O=C(CSCCO)Nc1cccc2ccccc12	-16	-1.7	-3%	-1	0.5	·	-7	·	·	·
CC(C)OC(=O)CC(=O)CSc1nc2c(cc1C#N)CCCC2	-5	10	-7%	-2	-1.5	·	-7	·	·	·
COc1ccc(-c2sc(Nc3ccccc3)n[n+]2-c2ccc(F)cc2)cc1Br	-2	0.5	·	-2	-0.3	1.2	-15	-2	-1	-2.4
CNC(=S)N(Cc1ccc(OC)cc1)C1CC(=O)N(c2ccc(Cl)cc2)C1=O (stereo not given)	-5	4.4	75%	8	-1.2	·	-5	·	·	·
COc1ccc2c(c1OC)C(=O)N1N=C(c3ccccc3)CC21 (stereo not given)	-2	-1.9	5%	-4	0.0	·	1	·	·	·
CCc1nc(NCC2CCCN2CC)c2nnn(Cc3ccccc3F)c2n1 (stereo not given)	19	1.3	74%	·	-0.5	·	2	·	·	·
Oc1ccccc1Oc1ncc(Br)c(N2CCOCC2)n1	-5	-0.5	14%	-1	-0.2	·	-21	·	·	·
(continued)
SMILES	T cruzi repl	RanGTP-Impb inh	Vif TR-FRET	Beta apoptosis	Bfl-1 A1 inh	MLL AF4-AF9 inh	Calb FLC	rRNA inh HTS	rRNA inh HTS OD600	rRNA inh HTS RFP
O=C(O)COc1ccccc1C1C2C(=O)N(c3ccc(F)cc3)C(=O)C2ON1c1ccccc1 (stereo not given)	-12	4.8	9%	-1	0.3	·	23	·	·	·
N#Cc1ccc(C(=O)Nc2cccc(NC(=O)c3ccco3)c2)c(F)c1	-5	2.3	6%	1	0.5	-2.5	29	17	5	7.4
CCS(=O)(=O)N1CCC(C(=O)Nc2cc(C)ccc2O)CC1	-9	1.6	-2%	-1	?	-0.1	1	4	11	2.0
COc1cc(S(=O)(=O)NC2CCCCC2)c(C)cc1C	2	4.5	7%	1	1.5	-1.8	11	-15	-12	2.5
CC(=O)c1sc(-c2cccc(Cl)c2)nc1C	7	3.7	3%	4	-1.3	-1.1	-11	-11	-18	3.3
Cc1ccc(CNC(=O)c2ccc(Cn3cc(-c4ccc(C)cc4)nc3-c3ccncc3)cc2)cc1	45	-0.5	·	7	-2.0	-2.3	-2	15	20	4.0
CC(C)c1nnc(SCC(=O)NC2CCCC2)n1C	-21	3.2	·	-3	0.5	0.5	-3	4	12	0.9
CC(NC(=O)[C@@H](C)NC(=O)[C@@H]1Cc2ccccc2CN1C(=O)OC(C)(C)C)c1ccccc1 (stereo not given in full)	1	-2.4	·	-5	1.5	-1.2	-6	2	0	-3.4
CC(=O)N(CCP(=O)(c1ccccc1)c1ccccc1)Cc1ccco1	·	·	14%	2	1.3	·	6	·	·	·
CC(=O)Nc1cc(C(=O)N2CCOCC2)ccc1S(=O)(=O)c1ccc(C)cc1	-17	-1.6	2%	-1	-0.1	·	-1	·	·	·
CSC1=NC(C)N2C(SC)=NC(C)N12 (stereo not given)	-8	-1.2	0%	-8	0.2	5.8	-1	6	5	-1.4
COc1ccc(C(=O)NCCNC(=O)c2cc(OCC(F)(F)F)ccc2OCC(F)(F)F)cc1	-3	2.1	-4%	2	1.6	·	3	·	·	·
COc1ccccc1CC(=O)N1CCN(c2cccc(Cl)c2)CC1	-2	-1.5	-1%	-1	-0.3	4.2	2	-38	-64	-8.1
O=C(O)C(NS(=O)(=O)c1ccc(F)cc1)c1ccccc1 (stereo not given)	-7	-1.6	18%	-18	-0.3	-0.5	-9	5	3	0.0
O=C(NCc1ccco1)c1cc(C(=O)C2CC2)c[nH]1	-9	-1.8	0%	1	-0.4	·	6	·	·	·
